TRPML1 ag: activates the human TRPML1 channel; TRPML1-expressing cells, Ca2+ dye fluorescence, FDSS; host cell line not named in the record; reference of the full effect not given here; Q9GZU1; activation, % (concentration not given with the values); 0.12% of 410,000 active; AID 624414; in the data active = activation above about 50%; inconclusive = about 30% to 50%; inactive = below about 30%; also: 0% is about no effect; the text of the record puts the active cut at 80%
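Agonist activity was taken from a 110 s kinetic Ca2+ dye read on the FDSS after pinning compounds onto TRPML1-DL cells. The cells were seeded at 1,500/well with Tet inducer, incubated about 16 h, then dye-loaded at room temperature.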
PINK1 modulator: PINK1 expression modulation. PINK1 immunofluorescence, high-content cytometry, 24 h. Potency, µM (highest dose often 76.6 µM), for inactives: at the top dose activation (PINK1 increase), hits mostly activators. 0.2% of 410,000 active. AID 624263; active = well fitted activation curve with a large enough effect; inconclusive = small, poorly fitted or top-dose-only effect; inactive = flat fitted curve, though single readings scatter; cell line not stated here;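 also: potency is read from the fitted curve at half-maximal effect; % of control where 0% means no effect; nearly all actives have a fitted effect of over 65% in size; a mitochondrial uncoupler was the plate control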
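A stable cell line was treated with compounds at 5 concentrations for 24 hours, with CCCP as control. PINK1 levels and mitochondrial localization were measured by immunofluorescence with mitochondrial, cell and nuclear markers after fixation, read by laser-scanning cytometry.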
Sfp PPTase inh: Sfp phosphopantetheinyl transferase inhibition | Q9F4F7 | 3.5% of 310,000 active | Biochemical Sfp PPTase activity, qHTS | Potency, µM, without a hit: max response, negative = inhibition, hits mostly inhibitors; active = well fitted inhibition curve with a large enough effect; inconclusive = small, poorly fitted or top-dose-only effect, or another doubt; inactive = no such curve, though single readings can be large or run the other way;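 also: the enzyme is Sfp with the accession as filed and its product quenches rhodamine fluorescence; potency is read from the fitted curve at half-maximal effect; 0% = enzyme reaction without inhibitor and -100% = no enzyme wells; top concentration of the series not given in the record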
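Fluorescence-quenching assay with 15 nM Sfp, 5 uM rhodamine-CoA and 12.5 uM BHQ-2-labelled ybbR peptide in pH 7.6 Hepes/MgCl2 buffer. Enzyme was pre-incubated with compound for 15 min at room temperature. Rate was taken from the 30-min fluorescence change (525/598 nm).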
Menin MLL FP FL: displaces fluorescein MLL peptide from human menin; Fluorescence polarization, fluorescein-MLL peptide displacement from menin; FP activity change, % at 61.4 µM; 290,000 tested, under 10 active; inconclusive = falling polarisation curve, or a change in total fluorescence; inactive = total fluorescence flat and polarisation flat or rising; no compound was filed as active; the % refers to the polarisation; negative = inhibition;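 also: % of control where 0% means no effect; inhibitors lower the polarisation; unlabelled MLL peptide was the positive control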
ClpP mod: qHTS Assay for Activators of ClpP. Potency, µM (doses to about 57.5 µM), inactives show at the top dose activity change, negative = active. ATP-dependent Clp protease proteolytic subunit (Bacillus subtilis (strain 168)), P80244. 1.9% of 340,000 active. AID 651965, 2013. purified B. subtilis ClpP, FRET peptide cleavage, 20 min; active = well fitted falling curve with a large enough effect; inconclusive = small, poorly fitted or top-dose-only effect; inactive = no such curve, though single readings can be large or run the other way; also: potency is read from the fitted curve at half-maximal effect; the source files actives as falling curves though it sought activators and does not explain the sign; nearly all actives have a fitted effect of over 65% in size; many hits overshoot -100%
Target sequence (P80244 whole entry, looked up): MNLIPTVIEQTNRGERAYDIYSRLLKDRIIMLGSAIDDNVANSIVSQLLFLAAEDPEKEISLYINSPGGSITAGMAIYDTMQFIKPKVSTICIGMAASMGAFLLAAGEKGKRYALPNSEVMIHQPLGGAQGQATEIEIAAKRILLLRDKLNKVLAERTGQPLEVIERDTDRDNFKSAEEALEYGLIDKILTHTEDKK
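FRET quenching reversal measured ClpP activation: 10 microg/mL B. subtilis ClpP at pH 8 with the FRET-FV decapeptide, read at 430 nm after 320 nm excitation. The 20-min minus 0-min signal was scaled between DMSO/no-enzyme wells and ADEP (5.8 microM final).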
TRPV1 potentiator: human TRPV1 potentiation | AID 540277 | TRPV1-expressing cells, Fluo-8 calcium influx, capsaicin EC20 potentiation; host cell line not named in the record; control for the full effect not named in the record | Q8NER1 | potentiation, % at 8.33 µM | 0.02% of 320,000 active; active means potentiation above 80%; inconclusive means 30% to 80%; inactive means below 30%; also: 0% is about no effect
Target sequence (Q8NER1 whole entry, looked up): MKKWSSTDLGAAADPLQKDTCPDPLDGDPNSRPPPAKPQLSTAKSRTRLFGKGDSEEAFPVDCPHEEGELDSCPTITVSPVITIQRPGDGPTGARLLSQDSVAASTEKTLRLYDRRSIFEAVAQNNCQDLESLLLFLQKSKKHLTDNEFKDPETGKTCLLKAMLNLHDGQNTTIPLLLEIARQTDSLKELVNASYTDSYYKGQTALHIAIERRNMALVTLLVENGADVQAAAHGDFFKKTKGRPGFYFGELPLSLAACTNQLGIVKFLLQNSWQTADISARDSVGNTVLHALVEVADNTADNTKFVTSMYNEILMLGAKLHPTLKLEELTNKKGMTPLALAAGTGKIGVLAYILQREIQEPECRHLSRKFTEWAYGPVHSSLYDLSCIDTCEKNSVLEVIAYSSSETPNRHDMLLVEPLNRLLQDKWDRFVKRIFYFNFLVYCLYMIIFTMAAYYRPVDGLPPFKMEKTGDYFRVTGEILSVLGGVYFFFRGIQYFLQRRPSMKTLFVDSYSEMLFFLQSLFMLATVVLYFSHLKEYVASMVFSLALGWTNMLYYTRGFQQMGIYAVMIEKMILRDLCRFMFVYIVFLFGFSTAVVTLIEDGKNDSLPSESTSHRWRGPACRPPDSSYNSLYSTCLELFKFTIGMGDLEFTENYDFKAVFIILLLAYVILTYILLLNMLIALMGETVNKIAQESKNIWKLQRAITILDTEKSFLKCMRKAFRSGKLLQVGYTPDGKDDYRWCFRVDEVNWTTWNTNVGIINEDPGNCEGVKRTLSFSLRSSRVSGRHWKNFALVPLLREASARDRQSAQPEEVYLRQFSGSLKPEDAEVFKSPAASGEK
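TRPV1-expressing cells were cultured overnight at 35.5C and loaded with Fluo-8 calcium dye for 40 to 90 min at room temperature. After a 10 s baseline, compound was added and calcium influx was read kinetically for 3 min (ex 480/em 520 nm).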
TRPML1 blocker: blocks the human TRPML1 channel. Q9GZU1. TRPML1-inducible cells, Ca2+ dye fluorescence, FDSS; stronger effect = lower value; inhibition of EC80 agonist-evoked calcium signal. activity change, negative = inhibition, % (test concentration not listed). 0.02% of 390,000 active; in the data active means activity change below about -50%; inconclusive means about -30% to -50%; inactive means above about -30%;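 also: stimulus is agonist 54-4 at its EC80 concentration; % is scaled to controls: 0 for no effect and ±100 for the full control effect; compound concentration not given in the record; the text of the record puts the active cut at -80%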
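Tet-induced TRPML1-DL cells loaded with Ca8 no-wash calcium dye were read kinetically on FDSS. Compound addition was followed by EC80 agonist 54-4 (4 uM final); inhibition was read over 110 s.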
* hit, by the source's call; & = joins results of further samples; [ ] = another dose, or the depositor's remark.

Cc1cccc(N2C(=O)CCC2=O)n1 was read as TRPML1 ag -1.4, PINK1 modulator -0.1%, Sfp PPTase inh 19%, Menin MLL FP FL 4.9, ClpP mod -1.3%, TRPV1 potentiator -7 and TRPML1 blocker -7.
`Cc1cc(NC(=O)COc2ccccc2C#N)no1` gave TRPML1 ag 0.0, PINK1 modulator -0.4%, ClpP mod -1.8%, TRPV1 potentiator 14 and TRPML1 blocker 23.
Screening COc1ccc(C(=O)N2CCC3(CC2)CN(c2ccc(-c4ccccc4)cc2)C3)cc1 returned PINK1 modulator 1.6%, Sfp PPTase inh 4% and Menin MLL FP FL -1.0.
Screening CC(=O)Nc1ccc(OCC(O)Cn2ccnc2)cc1 (centres undefined) returned TRPML1 ag 0.2, PINK1 modulator 1.7%, Sfp PPTase inh 9%, Menin MLL FP FL 1.5, ClpP mod 2.3%, TRPV1 potentiator -24 and TRPML1 blocker -10.
`Cc1ccc2c(CN3CCCc4ccccc43)cc(=O)oc2c1C` gave TRPML1 ag -0.2, PINK1 modulator 6.9%, Sfp PPTase inh -24%, Menin MLL FP FL inconclusive, ClpP mod -0.9%, TRPV1 potentiator 23 and TRPML1 blocker -3.
CCn1c(=N)c(C(=O)NCCCOC)cc2c(=O)n3cccc(C)c3nc21 was read as TRPML1 ag 0.1, PINK1 modulator -0.1%, Sfp PPTase inh 7%, Menin MLL FP FL 0.9, ClpP mod -53%, TRPV1 potentiator -2 and TRPML1 blocker 6.
CC(=O)C1=C(O)C(=O)N(c2cccc(Br)c2)C1c1ccc(Br)cc1 (centres undefined) was read as TRPML1 ag 0.0, PINK1 modulator 0.3%, Sfp PPTase inh 4%, Menin MLL FP FL 2.0, ClpP mod -9.1%, TRPV1 potentiator -3 and TRPML1 blocker 7.
Screening Cc1ccsc1/C=N/Nc1nc2ccccc2[nH]1 returned TRPML1 ag -0.1, PINK1 modulator 0.0%, Sfp PPTase inh 0%, Menin MLL FP FL 3.5, ClpP mod -2.7%, TRPV1 potentiator -4 and TRPML1 blocker -6.
`Cc1ccc(N2CC(NC(=O)/C=C\c3ccc4c(c3)OCO4)CC2=O)cc1C` (centres undefined) gave TRPML1 ag -0.5, PINK1 modulator 7.9%, ClpP mod -8.0% and TRPML1 blocker -1.
Screening CN(c1cccc(Cl)c1)S(=O)(=O)c1cccc(C(=O)NN2CCOCC2)c1 returned TRPML1 ag 0.1, PINK1 modulator 1.8%, ClpP mod -1.6%, TRPV1 potentiator 0 and TRPML1 blocker -6.
`O=C(NCc1ccncc1)C(=O)NCC1OCCCN1S(=O)(=O)c1ccc(F)cc1` (centres undefined) gave TRPML1 ag 0.9, PINK1 modulator -1.3%, Sfp PPTase inh 18%, ClpP mod -0.9%, TRPV1 potentiator -2 and TRPML1 blocker 1.
Screening Clc1ccc(C2[C@H]3CN(Cc4cccnc4)[C@H](c4ccccc4)C34CC2(c2ccccc2)C4)cn1 (some centres undefined) returned TRPML1 ag -1.0, PINK1 modulator 7.2%, Sfp PPTase inh -13%&-11%, Menin MLL FP FL 0.9&-3.2, ClpP mod 1.8%, TRPV1 potentiator -18 and TRPML1 blocker -10.
CC(C)c1ccc(NC(=S)NNC(=O)C2CC2)cc1 was read as TRPML1 ag -0.2, PINK1 modulator 2.9%, Sfp PPTase inh -2%, Menin MLL FP FL -2.7, ClpP mod 1.0%, TRPV1 potentiator -8 and TRPML1 blocker -3.
Screening CCCCn1c(=O)c(CCC(=O)OCC(=O)Nc2ccc(F)c(Cl)c2)nc2ccccc21 returned TRPML1 ag 1.8, PINK1 modulator 1.1%, Sfp PPTase inh 19%, Menin MLL FP FL 0.7, ClpP mod -11%, TRPV1 potentiator -17 and TRPML1 blocker -5.
`CCOC(=O)c1c(NC(C)=O)sc2c(O)c(Br)ccc12` gave TRPML1 ag 1.5, PINK1 modulator 5.5%[38.3 µM], Sfp PPTase inh 2%, Menin MLL FP FL 0.8, ClpP mod -3.4%, TRPV1 potentiator inconclusive and TRPML1 blocker 41.
O=C(/C=C\c1ccco1)Oc1cccc2cccnc12 was read as TRPML1 ag 0.0, PINK1 modulator 1.3%, Sfp PPTase inh inconclusive, Menin MLL FP FL -1.5, TRPV1 potentiator 5 and TRPML1 blocker 3.
Screening CCc1ccccc1NC1c2ccccc2C(=O)N1c1cc(C)ccn1 (centres undefined) returned TRPML1 ag 0.9, PINK1 modulator 3.3%, Sfp PPTase inh 14%, Menin MLL FP FL 0.7, ClpP mod -0.4%, TRPV1 potentiator 2 and TRPML1 blocker 1.
For Cc1ccc(Cl)cc1NC(=O)c1cnn2c1NC(c1ccco1)CC2C(F)(F)F (centres undefined) the results were TRPML1 ag 4.6, PINK1 modulator -2.3%[38.3 µM], Sfp PPTase inh -1%, Menin MLL FP FL 8.2, ClpP mod 0.5%, TRPV1 potentiator 17 and TRPML1 blocker 5.
Screening O=C1OC(c2ccccc2)=C/C1=C/c1cccs1 returned TRPML1 ag 2.3, PINK1 modulator 11%, Sfp PPTase inh 50µM*, Menin MLL FP FL -2.5, ClpP mod 1.2%, TRPV1 potentiator -12 and TRPML1 blocker 10.
Cc1ccc(N2CC(C(=O)OCC(=O)c3ccc(C)c([N+](=O)[O-])c3)CC2=O)cc1 (centres undefined) was read as TRPML1 ag 0.7, PINK1 modulator -4.2%, TRPV1 potentiator -10 and TRPML1 blocker -16.
`Cc1ccc(Cn2ncc3c(NN)ncnc32)cc1` gave TRPML1 ag -0.9, PINK1 modulator -1.4%, Sfp PPTase inh -26%, Menin MLL FP FL -4.4, ClpP mod inconclusive, TRPV1 potentiator 1 and TRPML1 blocker -5.
Screening CCNC(=O)CC1C(=O)N(c2ccccc2)C(=O)N1CCc1ccc(OC)cc1 (centres undefined) returned TRPML1 ag 0.7, PINK1 modulator -0.6%[38.3 µM], Sfp PPTase inh -3%, Menin MLL FP FL 4.4, ClpP mod 0.5%, TRPV1 potentiator -1 and TRPML1 blocker 21.
Screening O=C1CCCC2=C1C(c1ccncc1)c1c(nc(SCc3ccccc3)[nH]c1=O)N2 (centres undefined) returned TRPML1 ag 0.4, PINK1 modulator 0.0%, Sfp PPTase inh -17%, Menin MLL FP FL 0.9, ClpP mod -20%, TRPV1 potentiator 21 and TRPML1 blocker 18.
For COc1ccc2c(c1)c(N1CCCC1=O)c(C(=O)Nc1ccc(Cl)cc1C)n2C the results were TRPML1 ag 1.9, PINK1 modulator -1.5%, ClpP mod -11% and TRPML1 blocker 12.
For FC(F)(F)c1ccccc1Cc1c(-c2cccc(Br)c2)nc2c3ccccc3ccn12 the results were TRPML1 ag -0.5, PINK1 modulator 2.1%, ClpP mod -13% and TRPML1 blocker -7.
`CCOc1ccc(-c2ccc(NS(=O)(=O)c3ccc(C)cc3)cc2)nn1` gave TRPML1 ag 0.5, PINK1 modulator 0.8%, ClpP mod 2.4% and TRPML1 blocker 1.
Cc1cc(C)c(C)c(S(=O)(=O)NCC(=O)O)c1C was read as TRPML1 ag -0.2, PINK1 modulator 0.3%, Sfp PPTase inh 14%, Menin MLL FP FL -0.6, ClpP mod 0.5%, TRPV1 potentiator 7 and TRPML1 blocker 4.
CCNC(=S)NNC(=O)C1CCCCC1 was read as TRPML1 ag -0.1, PINK1 modulator -3.3%, Sfp PPTase inh -6%, Menin MLL FP FL -6.0, ClpP mod -5.4%, TRPV1 potentiator 2 and TRPML1 blocker 5.
Screening CC(=O)Nc1ccc(N(CC(=O)NC2CCCC2)C(=O)CCC(=O)Nc2cc(C)on2)cc1 returned TRPML1 ag -0.5, PINK1 modulator -0.5%, Sfp PPTase inh 5%, Menin MLL FP FL -4.6, TRPV1 potentiator -1 and TRPML1 blocker -4.
For Cc1csc(N/N=C/c2ccccn2)n1 the results were TRPML1 ag -0.4, PINK1 modulator 30%, Sfp PPTase inh -22%, Menin MLL FP FL -1.3, TRPV1 potentiator 19 and TRPML1 blocker -22.
Cc1cc(C)n(CC(=O)N/N=C/c2cc([N+](=O)[O-])ccc2O)n1 was read as TRPML1 ag 0.8, PINK1 modulator -1.6%, Sfp PPTase inh 13%, Menin MLL FP FL 5.5, ClpP mod 1.2%, TRPV1 potentiator 2 and TRPML1 blocker -6.
Screening Cc1cc2c(cc1C)NC1(C[C@H]3CCC(=O)N4CC[C@@H](C1)[C@@H]34)C(=NC(C)(C)CC(C)(C)C)N2 (some centres undefined) returned TRPML1 ag -0.5&0.6, PINK1 modulator 4.4%, ClpP mod 3.3%&-1.9% and TRPML1 blocker 43.
FC(F)(F)c1cccc(Sc2nc(-c3ccccc3)nnc2C(F)(F)F)c1 was read as TRPML1 ag -0.3, PINK1 modulator -0.2%, Sfp PPTase inh -5%, Menin MLL FP FL -1.2, ClpP mod -2.7%, TRPV1 potentiator inconclusive and TRPML1 blocker 17.
O=C(/C=C/c1ccccc1)NC1CC2CCC1C2 (centres undefined) was read as TRPML1 ag 1.2, PINK1 modulator 0.0%, Sfp PPTase inh 8%, Menin MLL FP FL 3.5, ClpP mod 0.6%, TRPV1 potentiator -15 and TRPML1 blocker 5.
`COc1ccc(S(=O)(=O)Nc2ccc3c(c2)C(=O)N([C@H](C)CO)C[C@H](C)[C@@H](CN(C)S(C)(=O)=O)O3)cc1` gave TRPML1 ag 0.1, PINK1 modulator -0.2%, ClpP mod -3.1% and TRPML1 blocker 13.
Screening CC1=C/C(=N\OS(=O)(=O)c2ccccc2)C(C(C)C)=CC1=O returned TRPML1 ag 2.7, PINK1 modulator 0.0%, Sfp PPTase inh -28%, Menin MLL FP FL 1.5, ClpP mod 1.6%, TRPV1 potentiator 26 and TRPML1 blocker 10.
Cc1sc2nc(-c3ccccc3F)oc(=O)c2c1C was read as TRPML1 ag -0.8, PINK1 modulator 1.2%, ClpP mod -2.0% and TRPML1 blocker -8.
`COC(=O)CSc1nnc(-c2ccc(S(=O)(=O)N3CCCC3)cc2)o1` gave TRPML1 ag -0.3, PINK1 modulator 0.7%, Sfp PPTase inh 13%, Menin MLL FP FL -1.5, TRPV1 potentiator 5 and TRPML1 blocker 2.
Screening CC(O)[C@H](NC(=O)C1CCN(C(=O)[C@H](Cc2ccccc2)NC(=O)OC(C)(C)C)CC1)C(=O)O (some centres undefined) returned PINK1 modulator 0.8%, Sfp PPTase inh 7%, Menin MLL FP FL -3.0, ClpP mod 0.3% and TRPV1 potentiator 28.

Bioassay records (PubChem BioAssay)
